# Bioassay records deposited in PubChem BioAssay by several laboratories.
# MT1-MMP act inh – MT1-MMP (human) activation inhibition. HT1080 RFP-PRO-GFP cells, GFP/RFP ratio fluorescence, overnight; percent of plate control window, DMSO zero. GFP/RFP ratio change, % at 20 µM. actives 0.061% (n = 360,000). AID 651647;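 active = GFP/RFP ratio change of at least 30% with cell ATP level not reduced by more than half and red fluorescence within 50% of control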; note: strong numbers were not always called active
#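 Test system: HT1080 cells expressing an RFP-PRO-GFP fluorescent reporter construct / Compound dosing: single-point 20 µM compound, 1% DMSO / Schedule: cells overnight before dosing, compound overnight, 37 °C, 5% CO2 / Evaluation: GFP/RFP fluorescence ratio / Control set: DMSO and RFP-L50D-GFP cell wells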
# Env fusion inh – HIV envelope-mediated fusion inhibition | HeLa-JRFL Env/CEM21 cell fusion, luciferase | inhibition, % at 12.3 µM | actives 1.1% (n = 360,000) | AID 651610;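 active = mean replicate inhibition score of at least 50 and every replicate individually at or above 50; inconclusive = only one of the two criteria met; inactive = mean below 50 and not all replicates reaching 50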;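 note: 0% = plate neutral controls and 100% = maraviroc near 300 nM; one replicate is shown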
# Rce1 inhib – inhibitors of yeast Ras-converting enzyme. calls only. AID 2563. actives 0.27% (n = 290,000). yeast membranes, quenched prenylated peptide cleavage fluorescence;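 active = fall in fluorescence gain of 50% or more versus controls, with final raw signal at or below 3038400; inconclusive = same 50% fall but final raw signal above 3038400; inactive = fall in fluorescence gain under 50%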;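 note: plate controls were neutral control wells for no effect and wells lacking membranes for full effect; tested at 10 µM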
# Target sequence (Q03530 whole entry, looked up): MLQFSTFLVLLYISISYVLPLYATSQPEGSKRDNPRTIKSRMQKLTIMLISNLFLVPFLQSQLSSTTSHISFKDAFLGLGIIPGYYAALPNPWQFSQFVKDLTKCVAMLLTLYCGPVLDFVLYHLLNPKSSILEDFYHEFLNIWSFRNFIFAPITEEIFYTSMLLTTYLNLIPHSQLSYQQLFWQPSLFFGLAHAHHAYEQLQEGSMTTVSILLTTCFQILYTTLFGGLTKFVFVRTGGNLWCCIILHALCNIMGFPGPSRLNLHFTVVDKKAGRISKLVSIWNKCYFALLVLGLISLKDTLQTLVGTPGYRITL
# UUG fidelity – modulators of start codon recognition fidelity in yeast | S. cerevisiae UUG-firefly luciferase reporter, luminescence/redox ratio | activity score, % at 18.7 µM | actives 0.13% (n = 350,000) | AID 602363;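 active = replicate mean at a twofold rise or more, about +100% in these data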;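 note: firefly luciferase made from a UUG start codon reports start codon fidelity; reporter light over untreated wells divided by growth signal over untreated wells; some hits fall short of that in this replicate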
# eIF4H FP inh – inhibitors of RNA binding by human eIF4H | eIF4H fluorescence polarization binding assay | inhibition, % at 35 µM | actives 0.94% (n = 290,000);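 active = 50% or more with normal probe brightness, or confirmed in later tests; inconclusive = above 50% with abnormal brightness, or retests that disagree; inactive = below 50% or failed in later tests; about a fifth of its hits are not listed in these tables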;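 note: calls also rest on retests at 20 µM and on dose response follow-up; 0% = protein and probe with vehicle and 100% = probe without protein; strong numbers were not always called active; many hits fall short of the cut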
# CSC inhib – cancer stem cell inhibition. actives 1.1% (n = 300,000). cancer stem cell-like cells viability, luminescence. inhibition, % at 7.5 µM. AID 2717;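 active = mean at 75% or more and at least half the replicates too; inconclusive = mean and replicates disagree; tested in HMLE shEcad cells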;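 note: 0% = median of negative and 100% = median of positive control wells; the first replicate is given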
# PABP FP inh – blocks human PABP binding to poly(A) RNA. P11940. fluorescence polarization. inhibition, % at 35 µM. actives 1% (n = 290,000);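 active = 50% or more with normal probe brightness, or confirmed in later tests; inconclusive = above 50% with abnormal brightness, or retests that disagree; inactive = below 50% or failed in later tests; about a fifth of its hits are not listed in these tables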;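 note: calls also rest on retests at 20 µM and on dose response follow-up; controls were probe without protein and protein plus probe with vehicle; some compounds called inactive have numbers as strong as hits; many hits fall short of the cut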
# Target sequence (P11940 whole entry, looked up): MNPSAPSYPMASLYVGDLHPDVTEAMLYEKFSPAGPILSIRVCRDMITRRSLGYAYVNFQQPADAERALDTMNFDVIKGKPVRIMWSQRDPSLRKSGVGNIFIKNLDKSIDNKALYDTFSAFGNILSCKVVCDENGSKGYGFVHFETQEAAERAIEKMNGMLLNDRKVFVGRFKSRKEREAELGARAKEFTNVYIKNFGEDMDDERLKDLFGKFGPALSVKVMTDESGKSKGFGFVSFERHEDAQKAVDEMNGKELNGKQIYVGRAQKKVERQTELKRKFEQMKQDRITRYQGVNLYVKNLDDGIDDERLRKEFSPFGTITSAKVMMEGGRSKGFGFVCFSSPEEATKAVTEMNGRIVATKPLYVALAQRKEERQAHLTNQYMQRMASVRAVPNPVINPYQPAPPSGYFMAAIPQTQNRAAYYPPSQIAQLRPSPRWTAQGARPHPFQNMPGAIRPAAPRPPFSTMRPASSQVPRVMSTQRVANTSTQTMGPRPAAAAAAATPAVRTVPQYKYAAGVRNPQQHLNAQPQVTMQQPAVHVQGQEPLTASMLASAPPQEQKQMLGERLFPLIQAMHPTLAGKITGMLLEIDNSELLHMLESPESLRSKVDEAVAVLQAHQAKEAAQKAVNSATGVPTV
# eIF4H FP inh retest – recorded beside eIF4H FP inh, whose call it bears; inhibition, %; compound at 20 µM; confirmation average;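 mean of two retest wells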
# PABP FP inh retest – also measured in PABP FP inh; calls as there; inhibition, %; compound at 20 µM; confirmation repeats;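 mean of two retest wells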
# MT1-MMP act inh RFP – second read-out of MT1-MMP act inh, no call of its own (marks repeat the call); RFP signal change, %; measured here: RFP expression control read;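 0 = vehicle wells; hits needed this value within 50% of zero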
# * = called active by the depositor; i = inactive; ? = inconclusive; . = no result given.
# The first 2 compounds, to show the layout:
SMILES,MT1-MMP act inh,MT1-MMP act inh RFP,Env fusion inh,Rce1 inhib,UUG fidelity,eIF4H FP inh,CSC inhib,PABP FP inh,others
Nn1c(SCc2cc([N+](=O)[O-])cc3c2OCOC3)nnc1-c1ccccn1,-3,1,17,i,.,-12,-8,-10,
COc1cccc(-c2c(NC(=O)c3ccco3)n(-c3ccc(C)cc3)nc(C)c2=O)c1,-1,-1,2,i,-2,-4,-22,14,

# This part in full, from the first entry:
SMILES,MT1-MMP act inh,MT1-MMP act inh RFP,Env fusion inh,Rce1 inhib,UUG fidelity,eIF4H FP inh,CSC inhib,PABP FP inh,others
Nn1c(SCc2cc([N+](=O)[O-])cc3c2OCOC3)nnc1-c1ccccn1,-3,1,17,i,.,-12,-8,-10,
COc1cccc(-c2c(NC(=O)c3ccco3)n(-c3ccc(C)cc3)nc(C)c2=O)c1,-1,-1,2,i,-2,-4,-22,14,
CCOC(=O)C(NC(=O)CC)(Nc1ccc(S(=O)(=O)Nc2onc(C)c2C)cc1)C(F)(F)F (stereo unspecified),3,0,.,i,-5,-7,-5,3,
O=C(NNS(=O)(=O)c1ccccc1)c1ccncc1,-2,0,.,i,-1,8,4,9,
NC(=O)Cc1ccc(C(=O)c2ccc(Cl)cc2)s1,-2,-7,2,i,4,3,.,-8,
CCCCN(C)CCCNC(=O)c1cn(CC)c2ccc(S(=O)(=O)N3CCOCC3)cc2c1=O,-7,-2,0,i,-14,7,-21,0,
Cc1ccc(NC(=O)CN(C)Cc2nc3ccccc3c(=O)[nH]2)c(Br)c1,-5,-3,.,i,.,-6,-10,-2,
CNc1nc2[nH]c(=O)c3c(c2s1)OC(N)=C(C#N)C3c1cccc(F)c1 (stereo unspecified),-5,6,.,i,.,?,-10,?,
O=C(COC(=O)c1cncc(Br)c1)NCC12CC3CC(CC(C3)C1)C2,2,3,-13,.,-9,.,.,.,
CCOc1cc(C(=O)Nc2ccc3c4c(cccc24)C(=O)N3CC)cc(OCC)c1OCC,-2,1,34,i,-14,0,7,13,
O=C(NCCCN1CCCC1=O)c1cccc(S(=O)(=O)Nc2ccccc2Cl)c1,-6,2,.,.,-8,.,3,.,
Cc1onc(-c2ccccc2)c1C(=O)NC(=S)NNC(=O)c1ccco1,4,2,5,i,-54,22,5,11,
CC(Sc1nnc(NC(=O)c2cc3ccccc3oc2=O)s1)c1ccccc1 (stereo unspecified),3,6,1,i,-12,-2,-5,5,
CCOC(=O)Cc1csc(/N=C/c2c(O)n(-c3ccc(C)cc3C)c(=O)c3ccccc23)n1,-14,-5,.,i,-10,4,.,-12,
CCc1ccccc1OCCCN1CCCC1,3,1,1,i,-11,5,-1,20,
CCOC(=O)C1CCN(c2nc(-c3ccc(C)cc3)nc3ccccc23)CC1,-1,-1,22,i,.,-6,13,-7,
CSc1cccc(CN2CCC(CCC(=O)NC3CC3)CC2)c1,.,.,-1,i,-9,0,20,0,
O=c1cc(CSc2nc3cc(Cl)ccc3o2)nc2sccn12,1,0,.,i,-3,0,-7,-2,
O=C(NCCn1ccc2ccccc21)C1CCCCC1,3,-12,2,i,3,2,-3,6,
CCOC(=O)c1sc(C)c(C(=O)NC2CCCCC2)c1N,-1,0,.,i,-27,-6,0,-12,
CC(C)S(=O)(=O)c1csc(NC(=O)Nc2ccc(Cl)cc2)c1,5,-6,4,i,-8,-8,22,-1,
CNC(=O)CSc1nnc(-c2cccnc2)n1-c1ccc(C)cc1,-4,1,7,i,.,-6,-8,-3,
Cc1cc(NC(=O)C(C)Sc2nc(-c3ccccc3)cc(=O)[nH]2)no1 (stereo unspecified),1,-2,0,.,0,1,-1,20,
CCOC(=O)Cc1csc(NC(=S)NC(=O)c2ccccc2C)n1,4,-3,.,i,-4,0,-14,-9,
COC(=O)C1(C)NC(c2ccc(Cl)cc2)C2C(=O)N(c3ccccc3)C(=O)C21 (stereo unspecified),-5,-1,16,i,-6,-10,6,-11,
O=C(Nc1ccc(F)c(Cl)c1)c1cc(C2CCCN(C(=O)C3CC3)C2)on1 (stereo unspecified),1,-6,-86,.,-35,.,.,.,
Cc1ccccc1S(=O)(=O)Cc1ccc(C(=O)NC(C)c2ccc3c(c2)OCCO3)o1 (stereo unspecified),-2,0,-7,i,15,-7,-4,-9,
COc1ccc(N)cc1-n1cnnn1,1,5,4,i,.,-3,-17,10,
Cn1c(=S)[nH]c2cccnc21,6,2,.,i,-23,-3,-9,0,
CCCCCCNC(=O)c1c(O)c2ccccc2[nH]c1=O,-2,3,-105,i,-9,-8,4,-7,
O=c1[nH]c2ccc(Cl)cc2c(O)c1-c1ccccc1,-1,5,.,i,-9,8,9,5,
CCCCCC(=O)Nc1ccc(S(=O)(=O)Nc2cc(OC)nc(OC)n2)cc1,3,5,7,i,-11,4,-8,-1,
COc1ccc(/C=C2\SC(=O)N(CCCC(=O)Nc3cc(Cl)ccc3C(=O)O)C2=O)cc1,-1,-2,61*,.,.,.,-3,.,
Cc1cc(C)n(C(=O)CN2C(=O)c3ccccc3C2=O)n1,10,2,.,i,-18,-1,-8,1,
Cc1ccc(NC(=O)C(Cc2ccccc2)n2cccc2)cc1 (stereo unspecified),-1,-1,20,i,.,4,9,-1,
Cc1ccccc1-n1c(SCc2c(C)noc2C)nnc1-c1ccncc1,-4,4,-24,.,-16,-3,-4,0,
CCC(=O)c1ccc(OCC(=O)N2CCN(c3ccccn3)CC2)cc1,5,3,.,i,-23,-4,-5,3,
CSc1ccc(CN(C)C(=O)c2cccc(S(=O)(=O)NCc3ccccc3)c2)cc1,-1,-14,11,i,-5,25,6,57*,eIF4H FP inh retest=40;PABP FP inh retest=96*
O=C1C=C(c2cccc3c2oc2ccccc23)C[C@@H](c2ccc(F)cc2)C1,-2,-1,12,.,-10,.,17,.,
COc1ccc(CN2C(=O)/C(=C/c3ccncc3)SC2=S)cc1,-1,-5,25,i,.,7,23,0,
Cc1cc(/C=N/n2cnnc2)c(C)n1-c1cc(Cl)ccc1Cl,0,-9,-42,i,-10,-4,-1,7,
COc1ccc(N(CC(=O)NN=C2CCN(C)CC2)S(=O)(=O)c2ccccc2)c(OC)c1,0,3,7,i,-16,6,-7,12,
COc1ccc(-c2nc3ccccc3c(=O)n2-c2c(C)n(C)n(-c3ccccc3)c2=O)cc1,-2,2,-3,i,9,-1,-4,-3,
O=C(Cn1ncc(Cl)c(Cl)c1=O)c1ccc(Cl)cc1,-1,-27,-160,i,.,2,49,-6,
CC12CS(=O)(=O)CC1SC(=S)N2c1ccccn1 (stereo unspecified),2,-1,.,i,-5,-4,7,-5,
O=C(CSc1nccn(-c2ccc(F)c(Cl)c2)c1=O)NC1CCCC1,0,-1,0,i,.,.,10,.,
C=CCC(c1ccccc1)N(C(C)=O)c1ccco1 (stereo unspecified),1,3,-14,i,-13,0,4,-6,
CC(C)CCNc1nc(N)c([N+](=O)[O-])c(NCC2CCCO2)n1 (stereo unspecified),-1,-16,-4,i,.,-1,-7,6,
CC1CN(C2CCN(C(=O)c3ccccc3Cl)CC2)CC(C)O1 (stereo unspecified),-3,-1,.,i,.,10,-8,-3,
O=C(/C=C/c1cccc([N+](=O)[O-])c1)NCCSCc1ccccc1Cl,8,1,19,i,.,8,6,3,
CC(C)Sc1ncnc2c1oc1ccccc12,-5,-2,13,i,-22,10,-13,-5,
CCN(CC)c1ccc(C=C2C(=O)OC(C)(C(C)(C)C)OC2=O)cc1 (stereo unspecified),0,4,-5,i,-18,.,-4,.,
C[C@H](NC(=O)N1CCn2c1nc1ccccc12)C(=O)NCc1ccc2c(c1)OCO2,8,4,15,i,-16,-2,-11,-11,
COC(=O)c1ccc(CNC(=O)c2coc3ccccc3c2=O)cc1,-6,4,9,i,.,-2,.,-78,
COc1ccccc1N1CCN(C(c2cccs2)C(C)NC(=O)c2ccco2)CC1 (stereo unspecified),-1,-1,-4,i,-11,-4,-11,-3,
CN(C)c1ccc(C(C#N)c2ccc(Cl)cc2)nn1 (stereo unspecified),1,-2,7,i,.,6,-4,-18,
COCCCNC(=O)CSc1nc2ccccc2c(=O)n1CCC(=O)NCCc1ccc(OC)c(OC)c1,-1,-6,2,i,4,-10,3,-6,
O=C1N=C(N2CCCC2C(=O)O)S/C1=C\c1ccco1 (stereo unspecified),0,6,-8,i,.,?,-1,-15,
COc1ccc([C@H]2C[C@H](O)[C@@H](n3cc(C4CC4)nn3)CN2C(=O)c2cccs2)cc1,0,4,-1,.,-13,.,.,.,
Cc1ccccc1-c1nc2ccc(Cl)cc2c(=O)n1O,-1,2,7,i,-1,-5,8,-8,
# Next structures follow:
SMILES,MT1-MMP act inh,MT1-MMP act inh RFP,Env fusion inh,Rce1 inhib,UUG fidelity,eIF4H FP inh,CSC inhib,PABP FP inh,others
C=CCNC(=O)CCCOc1cccc(C)c1,6,-2,.,.,14,-4,.,-5,
COc1ccc(C(=O)NCc2nnc(SCC(=O)N3CCc4ccccc43)n2CCc2ccccc2)cc1,1,-4,43,i,-11,-2,-12,-11,
CCn1c(CSCc2ccc(F)cc2)nnc1SCC(=O)NCc1ccccc1,9,5,.,i,0,-4,3,2,
O=C(NC(=S)Nc1ccc(N2CCOCC2)c(Cl)c1)c1cccs1,5,0,-12,i,.,0,-1,2,
C=CCOc1ccccc1CNCc1ccc(F)cc1,-1,-2,3,i,.,-9,3,7,
Cc1cccc(C(CC(=O)O)NC(=O)C(F)(F)F)c1 (stereo unspecified),3,2,-54,i,.,1,13,-5,
Cc1nc(NCc2cccnc2)c2c3c(sc2n1)CCCC3,0,-3,12,i,10,-2,-9,-12,
COc1ccc(-c2cc(C(F)(F)F)n3nc(C(=O)NCc4ccco4)cc3n2)cc1,1,-1,.,i,.,-4,-29,-4,
Cc1ccc(F)c(S(=O)(=O)NC(=O)C2(C)CCN2C(=O)Cc2ccc(Cl)cc2Cl)c1 (stereo unspecified),2,7,-13,.,-16,.,.,.,
CC(C)(C)OC(=O)NCCCC[C@H](NC(=O)c1nc[nH]c1C(=O)N1CCN(c2ccccc2)CC1)C(=O)OC(C)(C)C,11,-9,-29,i,-7,7,-20,1,
N#CCn1c(CN2CCCC2)nc2ccccc2c1=O,-3,0,-2,i,-14,3,-9,3,
CCCNC(=O)C1(C)CCCN(Cc2noc(-c3c(C)noc3C)n2)C1 (stereo unspecified),0,3,-5,.,-2,.,.,.,
O=C(COc1ccccc1Br)NC1CC1,1,5,-13,i,-26,-6,1,-11,
Cc1cc(N2CCOCC2)nc2ccc(NC(=O)CCC(=O)N3CCCCC3)cc12,8,7,-89,i,-10,-3,-3,-4,
CCOc1cc2[nH]c(=S)n(C3CC3)c(=O)c2cc1OCC,2,0,6,i,.,2,-5,2,
CSc1ccc(C=NNc2ccc(S(=O)(=O)Nc3ccccc3C(=O)O)cc2[N+](=O)[O-])cc1,26,-1,27,.,0,.,25,.,
C#CCOCCOCCOCCNc1nc(N2CCN(C(=O)[C@H](CCC(=O)O)n3cc(CN)nn3)CC2)nc(N2CCN(C(=O)[C@H](CCC(=O)O)n3cc(CN)nn3)CC2)n1,0,2,-3,.,0,.,.,.,
CC(C)C(=O)Nc1nnc(SCC(=O)N2c3ccccc3CC2C)s1 (stereo unspecified),-6,-9,-120,.,-35,0,4,8,
CCN(c1ccccc1)S(=O)(=O)c1ccc(NC(=O)c2ccco2)cc1,0,-7,-10,i,.,7,-9,9,
COc1cccc(CC2(CO)CCCN(Cc3cn(C)c4ccccc34)C2)c1 (stereo unspecified),-7,1,10,i,-1,4,10,-1,
